FGF22 binding: binders of human FGF22 protein, primary screen, FGF22 synaptogenesis inhibitor project, biophysical, thermal shift, single point; recombinant FGF22 thermal shift, SYPRO orange fluorescence; percent of sucrose octasulfate shift, DMSO zero; calls only at 9.99 µM; 1.5% of 340,000 active;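 active = melting point raised past a set limit in the mean and every replicate; three in four hits are not shown here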
Target sequence (Q9HCT0 whole entry, looked up): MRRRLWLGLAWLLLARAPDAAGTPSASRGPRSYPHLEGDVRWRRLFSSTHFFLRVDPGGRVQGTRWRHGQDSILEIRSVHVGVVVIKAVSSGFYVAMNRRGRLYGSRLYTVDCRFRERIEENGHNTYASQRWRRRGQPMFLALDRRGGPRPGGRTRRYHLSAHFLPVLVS
rRNA inh HTS: reduced GFP signal of wild-type E. coli, primary screen, bacterial rRNA inhibitor project, GFP/RFP fluorescence, OD600, single point; AID 720706, 2013; E. coli WT GFP vs humanized-ribosome RFP mutants, 24 h; active compounds read low; DMSO median 0, no signal -100; 1.6% of 350,000 active; GFP signal change (wild-type ribosome), % (concentration not given with the values);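 active = significant combined selectivity score with lowered wild-type GFP, culture density cut under 30%, mutant RFP and density less affected; inactive = any of these conditions unmet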; also: one replicate is shown; some compounds called inactive have numbers as strong as hits
rRNA inh HTS OD600: second read-out of rRNA inh HTS, no call of its own (marks repeat the call); OD600 change, %; measured here: OD600 growth;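 optical density of the mix in the first replicate; 0 = DMSO median and -100 = no signal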
rRNA inh HTS RFP: recorded beside rRNA inh HTS, whose call it bears; RFP signal change, %; measured here: RFP humanized mutant strains;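 first replicate; 0 = DMSO median and -100 = no signal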
* hit, by the source's call.

The opening 2 records (preview)
Screening COCC#Cc1cnc2c(c1)C(=O)N([C@H](C)CO)C[C@H](C)[C@H](CN(C)C(=O)NC1CCCC1)O2 returned FGF22 binding inactive, rRNA inh HTS 3, rRNA inh HTS OD600 7 and rRNA inh HTS RFP 1.6.
For CO[C@@H]1CN(C)C(=O)c2cc(NC(=O)NC3CCCCC3)ccc2OC[C@@H](C)NC[C@H]1C the results were FGF22 binding inactive, rRNA inh HTS 3, rRNA inh HTS OD600 4 and rRNA inh HTS RFP -2.5.

The whole of this part, from the first entry:
Screening COCC#Cc1cnc2c(c1)C(=O)N([C@H](C)CO)C[C@H](C)[C@H](CN(C)C(=O)NC1CCCC1)O2 returned FGF22 binding inactive, rRNA inh HTS 3, rRNA inh HTS OD600 7 and rRNA inh HTS RFP 1.6.
For CO[C@@H]1CN(C)C(=O)c2cc(NC(=O)NC3CCCCC3)ccc2OC[C@@H](C)NC[C@H]1C the results were FGF22 binding inactive, rRNA inh HTS 3, rRNA inh HTS OD600 4 and rRNA inh HTS RFP -2.5.
CC(C)NC(=O)N[C@H]1CC[C@@H](CC(=O)NC2Cc3ccccc3C2)O[C@@H]1CO was read as FGF22 binding inactive, rRNA inh HTS 3, rRNA inh HTS OD600 5 and rRNA inh HTS RFP -1.0.
For O=C(C[C@H]1CC[C@H](NC(=O)c2ccccc2)[C@H](CO)O1)NCCc1ccncc1 the results were FGF22 binding inactive, rRNA inh HTS 5, rRNA inh HTS OD600 1 and rRNA inh HTS RFP -1.1.
Screening CC(C)NC(=O)N(C)C[C@H]1Oc2ccc(NS(=O)(=O)c3ccccc3)cc2C(=O)N([C@@H](C)CO)C[C@@H]1C returned FGF22 binding inactive, rRNA inh HTS 4, rRNA inh HTS OD600 3 and rRNA inh HTS RFP -1.3.
Screening CO[C@H]1CN(C)C(=O)c2cc(NC(=O)Nc3c(C)noc3C)ccc2OC[C@@H](C)N(CCC(F)(F)F)C[C@H]1C returned FGF22 binding inactive, rRNA inh HTS 1, rRNA inh HTS OD600 -1 and rRNA inh HTS RFP -2.7.
Screening COc1ccc2c3c([nH]c2c1)[C@@H](CO)N(Cc1ccc(Cl)cc1)CC31CN(S(C)(=O)=O)C1 returned FGF22 binding inactive, rRNA inh HTS -11, rRNA inh HTS OD600 -19 and rRNA inh HTS RFP 0.2.
Screening C[C@@H]1CN([C@@H](C)CO)C(=O)c2cc(NS(C)(=O)=O)ccc2O[C@@H](C)CCCCO[C@@H]1CN(C)C(=O)c1ccccc1 returned FGF22 binding inactive, rRNA inh HTS -4, rRNA inh HTS OD600 -7 and rRNA inh HTS RFP -4.1.
COc1ccccc1C#Cc1cnc2c(c1)C(=O)N([C@@H](C)CO)C[C@@H](C)[C@@H](CN(C)C)O2 was read as FGF22 binding inactive, rRNA inh HTS 4, rRNA inh HTS OD600 0 and rRNA inh HTS RFP 0.1.
CCCC(=O)Nc1ccc2c(c1)C(=O)N(C)[C@H]1CC[C@@H](CC(=O)NCc3cccc(F)c3)O[C@H]1CO2 was read as FGF22 binding inactive, rRNA inh HTS 4, rRNA inh HTS OD600 3 and rRNA inh HTS RFP -0.6.
CN(C)CCCNC(=O)[C@@H]1[C@@H](CO)[C@@H]2Cn3c(ccc(-c4ccc(F)cc4)c3=O)[C@H]1N2C was read as FGF22 binding inactive, rRNA inh HTS 1, rRNA inh HTS OD600 -5 and rRNA inh HTS RFP 0.0.
`OC[C@H]1[C@H](c2ccc(-c3ccccc3)cc2)[C@H]2CN(CCC(F)(F)F)CCCCN21` gave FGF22 binding inactive, rRNA inh HTS -7, rRNA inh HTS OD600 -44 and rRNA inh HTS RFP 30.
For CN(C)C(=O)c1ccc(-c2ccc(C3[C@@H]4CN(C(=O)c5ccccn5)C[C@H]3N4)cc2)cc1 (stereo partly drawn) the results were FGF22 binding inactive, rRNA inh HTS 5, rRNA inh HTS OD600 6 and rRNA inh HTS RFP -6.5.
CN1c2ccc(-c3ccccc3)cc2[C@@H]2[C@@H](CCN2C(=O)Cc2ccccc2)[C@@H]1CO was read as FGF22 binding inactive, rRNA inh HTS -36, rRNA inh HTS OD600 -61 and rRNA inh HTS RFP 2.9.
CN1C[C@@H]2[C@H](c3ccccc31)[C@H](CO)N2Cc1ccccc1F was read as FGF22 binding inactive, rRNA inh HTS -1, rRNA inh HTS OD600 -11 and rRNA inh HTS RFP -2.1.

Grouped by structure, those above with a CF3 group
Screening CO[C@H]1CN(C)C(=O)c2cc(NC(=O)Nc3c(C)noc3C)ccc2OC[C@@H](C)N(CCC(F)(F)F)C[C@H]1C returned FGF22 binding inactive, rRNA inh HTS 1, rRNA inh HTS OD600 -1 and rRNA inh HTS RFP -2.7.
`OC[C@H]1[C@H](c2ccc(-c3ccccc3)cc2)[C@H]2CN(CCC(F)(F)F)CCCCN21` gave FGF22 binding inactive, rRNA inh HTS -7, rRNA inh HTS OD600 -44 and rRNA inh HTS RFP 30.

Next part
Screening CO[C@@H]1CN(C)C(=O)c2cc(NS(C)(=O)=O)ccc2OC[C@@H](C)N(Cc2cncnc2)C[C@@H]1C returned FGF22 binding inactive, rRNA inh HTS 5, rRNA inh HTS OD600 11 and rRNA inh HTS RFP -1.7.
`C[C@H](CO)N1C[C@H](C)[C@@H](CN(C)C(=O)Nc2ccc(F)cc2)Oc2ccc(NC(=O)C3CC3)cc2C1=O` gave FGF22 binding inactive, rRNA inh HTS -1, rRNA inh HTS OD600 -10 and rRNA inh HTS RFP -0.3.
For Cc1ccc(S(=O)(=O)N(C)C[C@@H]2Oc3ccc(NC(=O)Nc4ccc(F)cc4)cc3C(=O)N([C@@H](C)CO)C[C@@H]2C)cc1 the results were FGF22 binding inactive, rRNA inh HTS -4, rRNA inh HTS OD600 -10 and rRNA inh HTS RFP 1.3.
C[C@H](CO)N1C[C@H](C)[C@@H](CN(C)C(=O)Nc2cccc3ccccc23)Oc2ccc(NC(=O)C3CC3)cc2CC1=O was read as FGF22 binding inactive, rRNA inh HTS 4, rRNA inh HTS OD600 0 and rRNA inh HTS RFP 0.0.
`C[C@@H]1CN([C@H](C)CO)C(=O)c2ccccc2-c2ccccc2CO[C@@H]1CN(C)Cc1ccccc1C(F)(F)F` gave FGF22 binding inactive, rRNA inh HTS -1, rRNA inh HTS OD600 2 and rRNA inh HTS RFP 0.4.
Screening Cc1ccc(S(=O)(=O)Nc2ccc3c(c2)CC(=O)N([C@@H](C)CO)C[C@H](C)[C@@H](CN(C)S(=O)(=O)c2ccc(Cl)cc2)O3)cc1 returned FGF22 binding inactive, rRNA inh HTS 1, rRNA inh HTS OD600 -1 and rRNA inh HTS RFP -0.8.
`C[C@@H]1CCCCO[C@@H](CN(C)C(=O)NC2CCCCC2)[C@H](C)CN([C@H](C)CO)C(=O)c2cc(NC(=O)c3ccncc3)ccc2O1` gave FGF22 binding inactive, rRNA inh HTS -2, rRNA inh HTS OD600 -8 and rRNA inh HTS RFP -0.9.
CO[C@@H]1CN(C)C(=O)c2cc(NC(C)=O)ccc2OC[C@H](C)N(C(=O)C2CC2)C[C@H]1C was read as FGF22 binding inactive, rRNA inh HTS 3, rRNA inh HTS OD600 2 and rRNA inh HTS RFP -1.4.
`COc1ccccc1CNC(=O)C[C@H]1CC[C@@H](NC(C)=O)[C@@H](CO)O1` gave FGF22 binding inactive, rRNA inh HTS -4, rRNA inh HTS OD600 -3 and rRNA inh HTS RFP 0.0.
For N#C[C@@H]1[C@@H](c2ccc(-c3ccccc3F)cc2)[C@@H](CO)N1C(=O)C1CCC1 the results were FGF22 binding inactive, rRNA inh HTS -27, rRNA inh HTS OD600 -56 and rRNA inh HTS RFP -6.0.
For COCCNC(=O)C[C@H]1CC[C@H]2[C@@H](COC[C@H](O)CN2Cc2ccc(Cl)c(Cl)c2)O1 the results were FGF22 binding inactive, rRNA inh HTS -5, rRNA inh HTS OD600 1 and rRNA inh HTS RFP 2.8.
For O=C(C[C@H]1CC[C@@H]2[C@H](COC[C@@H](O)CN2Cc2cc(F)ccc2F)O1)NCc1ccc(Oc2ccccc2)cc1 the results were FGF22 binding inactive, rRNA inh HTS -24, rRNA inh HTS OD600 -45 and rRNA inh HTS RFP 4.2.
Screening C[C@H](CO)N1C[C@H](C)[C@H](CN(C)C(=O)Nc2ccccc2)Oc2ncc(C#CC3CC3)cc2C1=O returned FGF22 binding inactive, rRNA inh HTS -1, rRNA inh HTS OD600 8 and rRNA inh HTS RFP 0.4.
For Cc1cc(C(=O)Nc2cccc3c2O[C@@H](CN(C)C(=O)NC(C)C)[C@@H](C)CN([C@@H](C)CO)C3=O)n(C)n1 the results were FGF22 binding inactive, rRNA inh HTS 5, rRNA inh HTS OD600 11 and rRNA inh HTS RFP -1.3.
Screening CC(C)NC(=O)N(C)C[C@H]1Oc2cc(C#Cc3ccccn3)ccc2S(=O)(=O)N([C@H](C)CO)C[C@@H]1C returned FGF22 binding inactive, rRNA inh HTS 0, rRNA inh HTS OD600 10 and rRNA inh HTS RFP 0.0.
For Cc1noc(C)c1S(=O)(=O)Nc1ccc2c(c1)CC(=O)N([C@@H](C)CO)C[C@@H](C)[C@H](CN(C)C(=O)Nc1cccc3ccccc13)O2 the results were FGF22 binding inactive, rRNA inh HTS 1, rRNA inh HTS OD600 2 and rRNA inh HTS RFP 4.4.
`O=C(C[C@H]1C=C[C@H](NC(=O)CN2CCOCC2)[C@H](CO)O1)NC1CCC1` gave FGF22 binding inactive, rRNA inh HTS 3, rRNA inh HTS OD600 4 and rRNA inh HTS RFP -2.4.
`C[C@@H]1CN([C@@H](C)CO)C(=O)c2cccc(NC(=O)NC3CCCCC3)c2O[C@@H]1CN(C)Cc1ccc(C(=O)Nc2ccccc2N)cc1` gave FGF22 binding inactive, rRNA inh HTS 0, rRNA inh HTS OD600 -12 and rRNA inh HTS RFP -1.2.
For CN1C(=O)c2cc(NC(=O)c3ccc(F)cc3)ccc2OC[C@@H]2O[C@H](CC(=O)N3CCOCC3)CC[C@H]21 the results were FGF22 binding inactive, rRNA inh HTS 2, rRNA inh HTS OD600 10 and rRNA inh HTS RFP -1.0.
`COc1ccc(NC(=O)N[C@@H]2CC[C@@H](CCn3cc(C4(O)CCCC4)nn3)O[C@H]2CO)cc1` gave FGF22 binding inactive, rRNA inh HTS -2, rRNA inh HTS OD600 8 and rRNA inh HTS RFP 1.5.
Screening C[C@@H]1CN([C@@H](C)CO)C(=O)c2cc(NC(=O)C3CC3)ccc2O[C@@H]1CN(C)Cc1ccc(C(=O)Nc2ccccc2N)cc1 returned FGF22 binding inactive, rRNA inh HTS 3, rRNA inh HTS OD600 9 and rRNA inh HTS RFP -0.2.
Screening CNC[C@H]1Oc2cc(-c3cccc(C(=O)N(C)C)c3)ccc2S(=O)(=O)N([C@@H](C)CO)C[C@H]1C returned FGF22 binding inactive, rRNA inh HTS 6, rRNA inh HTS OD600 7 and rRNA inh HTS RFP -3.9.
O=C(C[C@H]1C[C@H]2c3cc(NS(=O)(=O)c4ccc(F)cc4)ccc3O[C@H]2[C@H](CO)O1)NCc1ccccc1F was read as FGF22 binding inactive, rRNA inh HTS -2, rRNA inh HTS OD600 -34 and rRNA inh HTS RFP 5.0.
For CCCC#Cc1ccc2c(c1)O[C@H](CN(C)Cc1cncnc1)[C@@H](C)CN([C@H](C)CO)S2(=O)=O the results were FGF22 binding inactive, rRNA inh HTS -12, rRNA inh HTS OD600 -28 and rRNA inh HTS RFP 5.3.
Screening O=C(C[C@H]1C=C[C@H](NC(=O)c2ccccc2)[C@@H](CO)O1)NCc1ccncn1 returned FGF22 binding inactive, rRNA inh HTS 1, rRNA inh HTS OD600 0 and rRNA inh HTS RFP 1.3.
`CN1c2ccc(-c3ccc(C#N)cc3)cc2[C@@H]2[C@@H](CCN2C(=O)Nc2ccccc2F)[C@@H]1CO` gave FGF22 binding inactive, rRNA inh HTS -13, rRNA inh HTS OD600 -3 and rRNA inh HTS RFP 7.9.
For COc1ccc(C#Cc2cnc3c(c2)C(=O)N([C@H](C)CO)C[C@H](C)[C@@H](CN(C)C(=O)c2ccccc2F)O3)cc1 the results were FGF22 binding inactive, rRNA inh HTS -4, rRNA inh HTS OD600 4 and rRNA inh HTS RFP -0.7.
Cc1cccc(S(=O)(=O)N2CC[C@@H]3[C@H](CO)N(C)c4ccc(-c5ccc(C#N)cc5)cc4[C@@H]32)c1 was read as FGF22 binding inactive, rRNA inh HTS 1, rRNA inh HTS OD600 -6 and rRNA inh HTS RFP 0.3.
For COc1ccc(S(=O)(=O)Nc2ccc3c(c2)C(=O)N([C@H](C)CO)C[C@@H](C)[C@@H](CN(C)C(=O)Nc2cccc4ccccc24)O3)cc1 the results were FGF22 binding inactive, rRNA inh HTS -7, rRNA inh HTS OD600 -4 and rRNA inh HTS RFP 0.9.
`O=C(NCc1ccccc1)[C@@H]1[C@@H](CO)[C@@H]2Cn3c(cccc3=O)[C@H]1N2Cc1cccnc1` gave FGF22 binding inactive, rRNA inh HTS 2, rRNA inh HTS OD600 7 and rRNA inh HTS RFP -1.4.
Screening CCCN1C[C@@H](C)[C@@H](OC)CN(C)C(=O)c2cc(NC(=O)C3CCOCC3)ccc2OC[C@H]1C returned FGF22 binding inactive, rRNA inh HTS 0, rRNA inh HTS OD600 -6 and rRNA inh HTS RFP 1.2.

Screening data deposited in PubChem by Broad Institute.

The list is partial (hit frequency here may not be typical).
